High-throughput results: PubChem BioAssay, National Center for Advancing Translational Sciences (NCATS)
VACV Venus inh = vaccinia inhibition (Venus reporter); Vaccinia virus Venus reporter expression, fluorescence; Potency, µM (doses to about 36.5 µM), for inactives: at the top dose activity change, negative = inhibition, actives largely listed as inhibitors; 0.46% of 330,000 active; AID 720580; active means well fitted inhibition curve with a large enough effect; inconclusive means small, poorly fitted or top-dose-only effect; inactive means no such curve, though single readings can be large or run the other way; tested in A549 cells; also: nearly all actives have a fitted effect of over 30% in size; inactives centre near -10
VACV mCherry inh = inhibitors of vaccinia virus infection (mCherry reporter signal). Vaccinia virus mCherry reporter infection, fluorescence; about a quarter of the inactives have no number. Potency, µM (titrated, usually from 36.5 µM), without a hit: top-dose activity change, negative = inhibition, usual class: inhibitors. 0.63% of 310,000 active; active = well fitted inhibition curve with a large enough effect; inconclusive = small, poorly fitted or top-dose-only effect; inactive = no such curve, though single readings can be large or run the other way; tested in A549 cells; also: nearly all actives have a fitted effect of over 35% in size; inactives centre near -10
* hit, by the source's call; i = inactive; ? = inconclusive; . = no result given; & = joins results of further samples; [ ] = dose if it differs, or a comment. % is scaled to controls: 0 for no effect and ±100 for the full control effect; potency is read from the fitted curve at half-maximal effect.

smiles,VACV Venus inh,VACV mCherry inh
COc1ccc(CNC(=O)CN(c2ccc(OC)cc2)S(=O)(=O)c2c(C)nn(C)c2C)cc1,-11%,-16%
Cc1cn2c(=O)c(S(=O)(=O)N3CCN(c4cc(Cl)ccc4C)CC3)c(C)nc2s1,-11%,-11%
Cc1cccc(-n2c(C)nc3ccccc3c2=O)c1C,-2%,-8%
O=C(c1ccccc1)N1c2nc(-c3ccco3)nn2C2(CCCCC2)[C@@H]2CCCC[C@@H]21,-5%,0%
CCN(CC)S(=O)(=O)c1cccc(NC(=O)COC(=O)c2cccs2)c1,-10%,0%
CC(=O)COc1cc(C)cc2oc(=O)c(C)c(C)c12,-9%,.
Cc1ccc(-n2ncc(C(=O)NCCN3CCOCC3)c2C2CCN(C(=O)OC(C)(C)C)CC2)c(C)c1,-5%,-10%
COc1ccc(SCCC(=O)NCc2ccncc2)cc1,2%,-9%
Cc1ccc(OCc2nc(C#N)c(NCCCn3ccnc3)o2)cc1,-28%,?
N#CCC(=O)Nc1ccc(C(=O)NCCc2c[nH]c3ccccc23)cc1,-3%,-6%
CN(C1=C(N2CCOCC2)C(=O)c2ccccc2C1=O)c1ccccc1,?,-24%
Nc1[nH]nc2ncc3cc4ccccc4nc3c12,-28%,-28%
O=C1CCC(=O)N1c1ccc(NCCc2cccc(F)c2)c([N+](=O)[O-])c1,6%,?
COc1ccc(-n2nnnc2C(CCc2ccccc2)N2CCC3(CC2)C(=O)NCN3c2ccccc2)cc1 (stereo not given),-18%,-4%
Cc1ccc2c(c1)N(CC(=O)N1CCCCC1C)C(=O)CO2 (stereo not given),-7%,8%
C[N+](C)(C)CC1CCCC1=O (stereo not given),-7%,i
CC(C)C(=O)N1CCC(n2nccc2NC(=O)CCc2ccccc2)CC1,-10%[7.34 µM],i[7.34 µM]
CC1(C)CC(=O)C2=C(C1)N(c1cccc(O)c1)C1=C(C2)C(=O)CC(C)(C)C1,-12%,i
CCOc1c(Br)cc(C(=O)Nc2cccc(S(=O)(=O)N3CCOCC3)c2)cc1OC,?,-15%
COc1ccccc1NC(=O)COC(=O)COc1cccc2c1OC(C)(C)C2,-13%,-16%
Cc1cc(C(=O)NNC(=O)CCC2CCCCC2)c(C)o1,-6%,i
CSCCC(NC(=O)c1ccccc1Cl)C(=O)N1CCN(C(c2ccccc2)c2ccccc2)CC1 (stereo not given),-29%,-9%
COCCN1Cc2cccc(C(=O)Nc3cccc(-c4nc5ccccc5[nH]4)c3)c2C1=O,?,?
CCOc1cc(CNC(=O)NC2COc3ccc(OC)cc3C2)cc(OCC)c1OCC (stereo not given),-9%,-8%
O=C(COc1ccccc1)Nc1nnc(-c2ccc(Cl)cc2)o1,-7%,-27%
CNc1nc2c(C)cccn2c(=O)c1C=NCc1ccccc1,-18%,?
C#CCOCCOCCOCCNc1nc(N2CCN(C(=O)[C@H]([C@@H](C)CC)n3cc([C@@H](N)CO)nn3)CC2)nc(N2CCN(C(=O)[C@H](Cc3ccc(O)cc3)n3cc([C@@H](N)CC(C)C)nn3)CC2)n1,-4%,i
CNc1ccc2nc3ccccc3[n+](C)c2c1,367%[activator],137%[activator]
Cc1nn(-c2ccccc2)c(NC(=O)c2cccs2)c(-c2ccccc2Cl)c1=O,-19%,?
COc1cc(CNC(=O)c2ccc(NC(=O)N3CCCCc4ccccc43)cc2)cc(OC)c1OC,-4%,-14%
CCCc1cc(C(=O)Nc2sc(C(C)=O)c(C)c2C(=O)OCC)no1,-10%,-14%
O=C1c2cccc(Cl)c2C(=O)c2c1cccc2N1CCCC1,-4%,i
O=C(c1ccc([N+](=O)[O-])cc1)N1CCOCC1,0%,-14%
CN(C)c1ncnc2sc(-c3ccccc3)cc12,-3%,i
Nc1cc(C(F)(F)F)ccc1N1CCOCC1,19%,-14%
COc1ccc(CN2CCCC(C(=O)N3CCCC3)C2)c(OC)c1OC (stereo not given),-3%,17%
CCOc1ccccc1C(=O)N(Cc1ccco1)Cc1ccco1,-5%,-6%
O=C(CCNS(=O)(=O)c1ccccc1C(F)(F)F)N1CCN(S(=O)(=O)c2cccc(F)c2)CC1,-1%,i
Cc1ccc(C)c(NC(=S)NC(NC(=O)N(C)C)C(Cl)(Cl)Cl)c1 (stereo not given),-14%,-16%
CCCN(CC(=O)Nc1ccccc1C)C(=O)C1CCN(c2ncnc3sc(C)c(C)c23)CC1,?,-24%
NS(=O)(=O)c1ccc(S(=O)(=O)N2CCN(c3nc(-c4cccs4)nc4ccccc34)CC2)cc1,-12%,-11%
C=CCN(c1ccc(C(=O)NCCCn2ccnc2)cc1)S(C)(=O)=O,0%,i
CCc1cc2c(=O)c(-c3cscn3)coc2c(CN(C)C)c1O,-30%,.
CC(C)(C)C(=O)c1c(N)[nH]c(C(=O)c2ccccc2)c1-c1ccc(C(F)(F)F)cc1,1%,-7%
Cn1c(=O)oc2cc(S(=O)(=O)Nc3ccccc3)ccc21,-9%,-5%
c1ccc(OCCCCN2CCCCC2)cc1,-22%,0%
C/C(CCC(C)C)=N\NC(=O)COc1ccccc1-c1ccccc1,-11%,-13%
CCCCOC(=O)Nc1nnc(COc2ccccc2)s1,-23%,-15%
COc1ccc(CC(=O)N2N=C(C)CC2(O)c2cccnc2)cc1OC (stereo not given),-15%,i
COc1ccc2nc(NC(=O)c3nc(SC(C)C)ncc3Cl)sc2c1,1%,-4%

2 entries drawn at random from those above, as already listed:
smiles,VACV Venus inh,VACV mCherry inh
COc1ccc2nc(NC(=O)c3nc(SC(C)C)ncc3Cl)sc2c1,1%,-4%
c1ccc(OCCCCN2CCCCC2)cc1,-22%,0%

Among those listed so far, these contain a tert-butyl group.
smiles,VACV Venus inh,VACV mCherry inh
Cc1ccc(-n2ncc(C(=O)NCCN3CCOCC3)c2C2CCN(C(=O)OC(C)(C)C)CC2)c(C)c1,-5%,-10%
CC(C)(C)C(=O)c1c(N)[nH]c(C(=O)c2ccccc2)c1-c1ccc(C(F)(F)F)cc1,1%,-7%

Other entries.
smiles,VACV Venus inh,VACV mCherry inh
COc1ccc(C(=O)NCCOc2cccc(OC)c2)cc1,-10%,-8%
CCN1CCCC1CNC(=O)Cn1cnc2ccc(S(=O)(=O)N3CCC(C)CC3)cc2c1=O (stereo not given),-5%,i
CCCc1nc2c(s1)CCc1onc(-c3ccc(Br)cc3)c1-2,-7%,-5%
Cc1cc(C(=O)OCC(=O)NNC(=O)c2cccs2)ccc1[N+](=O)[O-],0%,-28%
O=C(CSc1nc2c([nH]c3ccccc32)c(=O)n1-c1ccc(F)cc1)Nc1ccc2c(c1)OCCO2,-16%,i
N#CCCN(C(=O)CN1c2cccc3cccc(c23)S1(=O)=O)c1ccccc1,-4%,-2%
Cc1ccc(-c2nnc(SCC(=O)NCc3ccccc3)o2)cc1,1%,-13%
c1csc(Cc2nc3ccccc3[nH]2)c1,-5%,-9%
CCOc1ccc(-n2c(SCC(=O)N3CCC(C)CC3)nc3c([nH]c4ccccc43)c2=O)cc1,-16%,-15%
COC(=O)C1=C(c2cc3ccccc3s2)C[C@@H]2CC[C@H]1N2C(=O)NCCNC(C)=O,-1%,-19%
COc1ccc(NC(=O)Cn2c(=O)n(CCC(C)C)c(=O)c3cccnc32)cc1Cl,-8%,-1%
COc1ccc(NC(=O)c2ccco2)cc1NC(=O)c1ccccc1,-18%,-12%
Cn1c(=O)c(NCCc2ccccc2)c2c3c(cccc31)C(=O)c1ccccc1-2,.,27%
CCCCC1CCCC12NC(=O)NC2=O (stereo not given),-6%,-7%
O=C(Nc1ccccc1)SC1CCCCC1,-15%,-23%
CCOC(=O)C1(C)CCCN(C(=O)c2ccc(F)c(Cl)c2)C1 (stereo not given),-10%,13%
Cc1cc(C)c(NC(=O)CNC(=O)COC(=O)C2=COCCO2)c(C)c1,-8%,i
O=Cc1[nH]c2ccccc2c1N(C(=O)CCl)c1ccc([N+](=O)[O-])cc1,-4%,-25%
N#CC(C#N)=Cc1ccc(NC(=O)c2ccc(Br)cc2)cc1,-2%,i
C(=N\c1nccs1)/c1c[nH]c2ccccc12,-5%,.
Cc1ccccc1CSCCNC(=O)CSCc1ccc([N+](=O)[O-])cc1,-16%,?
CO/N=C\CC(=O)Nc1ccc(Cl)cc1Cl,-23%,-16%
Cn1c(/C=C/c2ccccc2)nc2ccccc21,-20%,-2%
COc1ccc(C)cc1NC(=O)c1cc2c(=O)n(Cc3cccnc3)ccc2nc1C,-8%,-14%
COc1ccc(Cl)cc1S(=O)(=O)N1CCN(C(=O)c2cc(-c3ccc(Br)cc3)n[nH]2)CC1,?,?

Further compounds
Second line of a record – VACV Venus inh	VACV mCherry inh
C#C[C@]1(O)CC[C@H]2[C@@H]3CCC4=CC(=O)CC[C@]4(C)[C@H]3CC[C@@]21C
  -20%&-6%	-9%&-9%
C=CCN=C1S/C(=C\c2ccc(N(C)C)cc2)C(=O)N1CC=C
  8%	?
Cc1ccc(NC(=S)NC(NC(=O)c2ccco2)C(Cl)(Cl)Cl)cc1 (stereo not given)
  -22%	-2%
COC(=O)C1=C(N)OC2=C(C(=O)CC(C)(C)C2)C1c1ccoc1 (stereo not given)
  1%	-9%
CCc1ccccc1NC(=O)CNC(=O)CCc1nc2sc3c(c2c(=O)[nH]1)CCCC3
  -19%	-6%
CC(OC(=O)c1nn(C)c(=O)c2ccccc12)C(=O)NC1CCCCC1C (stereo not given)
  -2%	-13%
O=C(Cn1c2[n+](c3ccccc31)CC(O)CS2)c1ccccc1 (stereo not given)
  -6%	-7%
CC(C(=O)NC(N)=O)N1C(=O)NC(c2ccccc2)(c2ccccc2)C1=O (stereo not given)
  2%	-10%
Cc1ccc(S(=O)(=O)NCc2ccccc2)cc1
  -10%	17%
CCN(Cc1ccccc1)C(=O)c1cccc(S(=O)(=O)N2CCN(c3ccccc3)CC2)c1
  -16%	-17%
O=[N+]([O-])c1cccc(N/N=C/c2cccc(O)c2O)c1
  ?	?
O=C(N/N=C\C1C(=O)NC(=S)N(c2ccccc2)C1=O)c1ccc(O)cc1 (stereo not given)
  -11%	-4%
COc1ccc(-c2cccc(CCC(=O)N3CCN(c4cc(C)ccc4C)CC3)c2)cc1
  -4%	-5%
COc1cccc(N2CC(C(=O)Nc3c(C)cccc3C)CC2=O)c1 (stereo not given)
  -16%	.
O=C(O)c1ccc(OCc2ccc(C(=O)O)o2)cc1
  2%	-14%
COc1cccc(OCC(=O)NC2CCS(=O)(=O)C2)c1 (stereo not given)
  -9%	i
S=P(N1CC1)(N1CC1)N1CC1
  -6%&-7%	-3%&-2%
Cn1c(=O)c(C(=O)NCCc2ccccc2)c(O)c2ccccc21
  -4%	?
Cc1ccc(-c2nnn(CC(=O)N3CCN(c4nc5ccccc5s4)CC3)n2)cc1
  -15%	-25%
CCCCOC(=O)Nc1cc(C(=O)OC)ccc1C(=O)OC
  -15%	-13%
COc1ccc(CC(=O)OCC(=O)Nc2ccc3c(c2)OCO3)cc1OC
  6%	2%
COC(=O)[C@@]1(C)CCC[C@@]2(C)c3ccc(O)c(C(C)C)c3CCC21 (stereo not given in full)
  ?	?
O=C(CN1C(=O)C2(SCC(=O)N2c2cccc(Cl)c2)c2ccccc21)NCCc1ccccc1 (stereo not given)
  -21%	-21%
COc1ccc(OC)c(C(O)c2ncc(-c3cccc(C(F)(F)F)c3)[nH]2)c1 (stereo not given)
  6%	i
O=C(C(Cl)Cl)N1CCN(c2ccccn2)CC1
  -19%	i
O=C1N(c2ccc(Cl)cc2)C(c2ccccc2)N2CCCN12 (stereo not given)
  -18%	-26%
COC(=O)c1cc(-c2ccc(OC)cc2)n[nH]1
  -12%	0%
COc1ccccc1C(=O)NNC1=NS(=O)(=O)c2ccccc21
  -8%	i
COc1ccc(S(=O)(=O)N(CC(=O)NCCSc2ccc(C)cc2)c2ccc(C)cc2)cc1
  -23%	-26%
COc1ccccc1NC(=O)CSc1nc(-c2ccc(C)cc2)nc2c1Cc1c(CO)cnc(C)c1O2
  -6%	-1%
O=C(Nc1ccc2c(c1)OCO2)c1ccc2c(c1)OCO2
  -6%	-16%
O=C1C2C(C(=O)N1Cc1ccco1)C1C=CC2C12CC2 (stereo not given)
  -8%	-1%
COC(=O)c1oc2ccccc2c1NC(=O)c1ccccc1O
  -16%	-9%
CC1CCCN(CC(O)COc2ccc(Cl)cc2)C1 (stereo not given)
  -3%	-13%
CC(=O)Nc1ccc(/C=N/N2CCCCC2)cc1
  -1%	7%
Cc1cccc(NCc2ccccc2O)c1C
  -30%	-20%
O=[N+]([O-])c1ccc(N/N=C/c2cn(-c3ccccc3)nc2-c2ccccc2)cc1
  -10%	-14%

Single records (already shown). Order of screens: VACV Venus inh, VACV mCherry inh
`O=C(Nc1ccc2c(c1)OCO2)c1ccc2c(c1)OCO2` across the screens: -6%, -16%
`O=C1N(c2ccc(Cl)cc2)C(c2ccccc2)N2CCCN12` (stereo not given) across the screens: -18%, -26%
`COc1ccccc1C(=O)NNC1=NS(=O)(=O)c2ccccc21` across the screens: -8%, i
`COc1ccc(CC(=O)OCC(=O)Nc2ccc3c(c2)OCO3)cc1OC` across the screens: 6%, 2%
